# hNpr1 antagonist – Natriuretic polypeptide receptor (hNpr1) antagonism - Primary qHTS; Atrial natriuretic peptide receptor 1 (Homo sapiens), P16066; HEK293 hNpr1 GloSensor cGMP, ANP-stimulated luminescence; Potency, µM (doses to about 46.3 µM), inactives show at the highest dose activity change, negative = inhibition, hits mostly inhibitors; 76,000 compounds, 1.6% hits; AID 1347048, 2019; active = well fitted inhibition curve with a large enough effect; inconclusive = small, poorly fitted or top-dose-only effect; inactive = no such curve, though single readings can be large or run the other way;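 further: nearly all actives have a fitted effect of over 60% in size; nearly all hits also lower the signal before the agonist is added; a reference antagonist and vehicle were the controls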
# Target sequence (P16066 whole entry, looked up): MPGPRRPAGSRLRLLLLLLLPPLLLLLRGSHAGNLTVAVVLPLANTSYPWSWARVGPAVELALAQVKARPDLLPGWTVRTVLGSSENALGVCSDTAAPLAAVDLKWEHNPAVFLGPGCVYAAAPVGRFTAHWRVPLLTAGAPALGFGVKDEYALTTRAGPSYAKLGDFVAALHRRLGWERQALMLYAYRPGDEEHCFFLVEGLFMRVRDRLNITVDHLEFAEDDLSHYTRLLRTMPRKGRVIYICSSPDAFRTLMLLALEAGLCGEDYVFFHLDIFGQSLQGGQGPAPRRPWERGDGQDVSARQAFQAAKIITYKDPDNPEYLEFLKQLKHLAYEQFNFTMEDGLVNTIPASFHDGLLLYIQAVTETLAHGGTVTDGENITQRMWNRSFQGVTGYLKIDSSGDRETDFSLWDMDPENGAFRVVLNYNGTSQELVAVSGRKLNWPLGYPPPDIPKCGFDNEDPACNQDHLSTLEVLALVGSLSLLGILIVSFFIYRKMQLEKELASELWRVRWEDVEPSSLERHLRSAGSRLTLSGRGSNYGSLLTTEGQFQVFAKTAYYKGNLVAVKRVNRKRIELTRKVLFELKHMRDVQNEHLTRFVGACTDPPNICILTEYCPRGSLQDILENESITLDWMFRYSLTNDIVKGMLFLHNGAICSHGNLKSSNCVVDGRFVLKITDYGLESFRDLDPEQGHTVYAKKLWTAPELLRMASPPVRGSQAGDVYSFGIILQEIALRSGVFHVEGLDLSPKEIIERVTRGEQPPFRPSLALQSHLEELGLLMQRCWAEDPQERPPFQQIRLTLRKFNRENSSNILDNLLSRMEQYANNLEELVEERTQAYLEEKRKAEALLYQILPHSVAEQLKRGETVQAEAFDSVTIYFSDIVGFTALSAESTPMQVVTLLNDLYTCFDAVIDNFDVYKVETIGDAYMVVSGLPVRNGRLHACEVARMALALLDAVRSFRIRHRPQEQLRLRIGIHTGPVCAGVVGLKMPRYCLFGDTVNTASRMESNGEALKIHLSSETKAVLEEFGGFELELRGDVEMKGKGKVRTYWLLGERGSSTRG
#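 HEK293 cells stably expressing human Npr1 and cGMP GloSensor pGS-40F, loaded 2 h with 2% GloSensor reagent, given compound 30 min at room temperature. Luminescence read before and 20 min after 0.1 nM hNppA.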
# Numbers without * were called inactive; ? = inconclusive; [ ] = dose if it differs, or a comment. On the % scale 0 is the no-effect control and ±100 the full control effect; potency means the concentration at half of the fitted maximal effect.
hNpr1 antagonist | mol
-12% | CC(=O)N[C@@H]1CN(S(=O)(=O)c2sccc2C)C[C@H]1c1ccc(C)o1
-2% | CN(Cc1cccc(-c2nn[nH]n2)c1)C(=O)c1ccc(C2CCCNC2)cc1 (configuration not stated)
3%[70.6 µM] | O=C(NC1CCCCC1)N[C@H]1CCN2C(=O)c3cc(-c4ccccc4)ccc3NC(=O)[C@H]12
5%[70.6 µM] | Cc1cc(-c2cnc3n[nH]c(-c4sccc4C)c3n2)ccn1
10% | Cc1cc(C)n(CCC(=O)N2CCCC(c3nnnn3C)C2)n1 (configuration not stated)
6%[70.6 µM] | COc1cccc(CN[C@@H]2CCC[C@@H](C(=O)NC3CCOCC3)CC(=O)N(C)C2)c1
-5%[70.6 µM] | O=c1cc(-c2ccccn2)oc2c(-c3cccc(CO)c3)nccc12
? | Fc1ccc(-c2cc(CC3(NCc4ccccc4F)COC3)no2)cc1
4% | O=C(NCc1cccnc1)C1(CCO)CC12CCOCC2 (configuration not stated)
0% | CCCNC(=O)C1COC2(CCN(C(=O)CC(C)C)CC2)N1C(=O)c1cccc(OC)c1 (configuration not stated)
-3% | CCC1Oc2ccc(NC(=O)COc3ccccc3)cc2CN(Cc2cccc(OC)c2)C1=O (configuration not stated)
2% | CC(C)n1cnnc1CC1CCN(S(=O)(=O)Cc2ccccc2)C1 (configuration not stated)
-3%[70.6 µM] | O=C(Nc1ccc(F)cc1)c1ccc2ccnn2c1
4% | Cc1ccc(NC(=O)N2CCC(CCNC(=O)C(C)C)CC2)cc1F
-3% | CCO[C@H]1CN(C2CCN(c3ccc4c(c3)CCC4)CC2)C[C@@H]1O
3% | Cc1noc(CN(C)C(=O)C2C3C(=O)N(Cc4ccc(C)c(C)c4)C[C@@]34C=C[C@@H]2O4)n1 (some centres not stated)
5% | Cc1ncc(-c2ccc(F)c3cccnc23)nc1C
0% | Cc1ccc(C(=O)N2[C@@H]3CC[C@H]2CC(NC(=O)c2ccc(F)cc2)C3)cn1 (some centres not stated)
-1% | COc1ccc2[nH]c(=O)c(CCC(=O)N3CCN(CC(C)C)CC3)cc2c1
1% | CC(C)CCN1CC(C(=O)NCCN(C)C)C2(CCOCC2)C1 (configuration not stated)
-15% | NC1(C(=O)N2CCCC(CCc3cccc(C(F)(F)F)c3)C2)CC1 (configuration not stated)
1%[70.6 µM] | Cc1noc(C)c1-c1nccc2c(=O)cc(-c3cccnc3)oc12
-13% | Cc1ccc(NC(=O)N2CCC(Oc3ncccc3C(=O)N3CCOCC3)C2)cc1Cl (configuration not stated)
1% | O=C(c1cccnc1)N1CCC2(CCCCO2)CC1
-21% | COc1cc(Cl)ccc1C(=O)NC1CCN(c2cc(-c3cccs3)[nH]n2)C1 (configuration not stated)
2% | CCCc1cc(C(=O)N2CCC3(CC2)CN(C(C)CCC)C(=O)O3)n[nH]1 (configuration not stated)
-3% | OC[C@@H]1CNC[C@H]1C1CCN(Cc2ccco2)CC1
-1% | Cc1cc(N2CCN(C)C3(CCNC(=O)CC3)C2)nc(N2CCCCC2)n1 (configuration not stated)
15% | Cc1cn2nc(C(=O)N3CCC(NC(=O)CCc4ccccc4)CC3)cc2c(=O)[nH]1
4% | Cn1nnc(-c2cccc(NC(=O)Cn3nc4c(cc3=O)CCCC4)c2)n1
-2% | CC(C)CCN1CCc2nc(N3CCN(C)CC3)[nH]c(=O)c2CC1
6% | O=C(C1CC1)N1CCC(Cc2nc(C3CC3)n[nH]2)CC1
-1% | COCCn1nnnc1C1CC2(CCOCC2)C(=O)N1Cc1ccc(SC)cc1 (configuration not stated)
-3%[70.6 µM] | O=c1[nH]ccn1C1CCN(Cc2ccc(F)cc2)CC1
-21%[70.6 µM] | COC(=O)c1ccc2c(c1)nc1n2[C@@H](CNCc2cccc(OC)n2)COC1
9% | COc1ccc(C(=O)N2CC[C@H](CO)[C@H](NC(=O)C3CC3)C2)cc1F
-3% | CNC(=O)[C@@H]1C[C@@H](O)CN1C1CCN(C(=O)c2ccccc2OC)CC1
-5% | COCCc1nncn1C1CCN(C(=O)c2cc(Cl)ccc2F)CC1
-3% | O=C(c1cnc(Cc2c(Cl)cccc2Cl)[nH]c1=O)N1CCOCC1
-3% | COc1ccc(C2Cn3nnc(-c4nc(-c5ccc(C)cc5)no4)c3CO2)cc1 (configuration not stated)
0% | CCn1cc(CN2C[C@@H](COc3ccccc3)[C@H](C(N)=O)C2)cn1
5% | Cc1nc(NC(=O)NC2CCN(Cc3ccccc3)CC2)nn1C
-1% | COc1ccc(CN2C(=O)[C@@H]3C[C@@H](O)CN3C3(CN(Cc4ccc(NC(C)=O)cc4)C3)C2=O)cc1
-16%[70.6 µM] | COc1cc(CNC(=O)c2nc(C(O)c3ccccn3)oc2C)cc(OC)c1 (configuration not stated)
-24% | O=C(CC1CCCCN(Cc2ccccc2)C1=O)NC1CCCCCC1 (configuration not stated)
-27% | O=C(NC1CCCN(c2cc(-c3ccc(F)cc3)[nH]n2)C1)c1cccc(Cl)c1 (configuration not stated)
3% | Cc1cc2nc3n(c(=O)c2n1CC(=O)Nc1cc(F)cc(F)c1)CCCCC3
-2%[70.6 µM] | CC(=O)N1CCC(N2CCC[C@H]2c2nc(-c3ccc(-c4cncnc4)nc3)no2)CC1
3% | Cc1ncccc1C(=O)N[C@@H]1CN(c2ncccn2)C[C@H]1CO
14% | C=CCN1C[C@@H]2CN(C(=O)C(C)(C)NC(C)=O)C[C@]2(C(=O)O)C1
6% | COCC(=O)N[C@H]1CC[C@]2(C)CCC([C@H](C)C(=O)NCCN3CCOCC3)[C@H](O)[C@H]2[C@@H]1C (some centres not stated)
-7%[70.6 µM] | Cc1ccc2c(c1)N1C(=O)OC[C@@H]1CCN(C(=O)NC1CCCCC1)C2
-1% | O=C(CCNC(=O)c1cnccn1)NC1CCCc2c1[nH]c1c(Cl)cccc21 (configuration not stated)
-9% | Cc1ccc(C)c(-c2cc3c(=O)n(CCNC(=O)c4cccc(F)c4)ccn3n2)c1
-6% | CC(C)(C)c1ccc(C(=O)Nc2nc3c(s2)C[C@@H]2[C@](C)(CO)[C@H](O)CC[C@@]2(C)[C@@H]3CC(=O)NCc2ccco2)cc1
4µM* | O=C(Nc1ccccc1)c1nc2c(o1)CCN(Cc1ccc(F)c(Cl)c1)CC2

# The list continues:
hNpr1 antagonist | mol
0% | Cc1cc(C)cc(N2CCN(Cc3cn(-c4ccccc4)nn3)CC2=O)c1
-8% | COc1ccc(CN2Cc3cc(NC(=O)c4ccc(F)cc4)ccc3OC(C)C2=O)c(OC)c1 (configuration not stated)
-1% | Cc1nc(C)c(C(=O)N2CCCC(COc3ccccc3C(=O)N3CCOCC3)C2)s1 (configuration not stated)
5% | O=C(COc1ccccc1)N1CCCN(C(=O)C2CC2)c2ccccc21
1% | CNC(=O)NC[C@H]1CCN(Cc2cc(OC)cc(OC)c2)C[C@H]1N(C)C
3% | CCN1CCN(C(=O)C2CCCCC(=O)N2)CC1 (configuration not stated)
-3%[70.6 µM] | c1ccc(CN2CCC[C@H]2c2nc(-c3ccc(-n4ccnc4)nc3)no2)cc1
0% | Cc1ccccc1N1CCCN(Cc2cc3n(n2)CCNC3)CC1
0% | COc1ccc(C2(C(=O)N3CCC(N4CC5CC(C4)[C@H]4CCCC(=O)N4C5)CC3)CC2)cc1 (some centres not stated)
4%[70.6 µM] | O=C(COc1ccccc1)N1CCC2(CC1)OCCN(CCc1ccccc1)C2=O
? | Cc1nc2cccnc2n1CC1CCCN(S(=O)(=O)c2cccc(Cl)c2)C1 (configuration not stated)
-15% | NC(=O)c1noc(CN2CCOc3c(O)cc(-c4csc5ccccc45)cc3C2)n1
7% | COc1cccc(CNC(=O)[C@@H]2C[C@@H](O)CN2C2CCN(C(=O)c3ccc(OC)nc3)CC2)c1
-2% | CCOc1ccccc1CN1CCN(C2CCN(C(C)C)CC2)C(CCO)C1 (configuration not stated)
2% | CN(c1ncccc1CNC(=O)C1CCOCC1)C1CCCCC1
5% | O=C1NCCCCCN(S(=O)(=O)c2cccs2)[C@H]2CCCC[C@@H]12
-1% | Cc1ccc(S(=O)(=O)N2CCN(C3CCN(CCc4ccccc4)C3=O)CC2)cc1 (configuration not stated)
5% | Cc1nn(CC(=O)NCc2cccs2)c(=O)c2nc(C(C)C)sc12
-10%[70.6 µM] | O=C(OCc1ccccc1)N1CCOCC12CCN(Cc1ccc(O)cc1)CC2
5% | COCC(=O)N1CCC(N2C[C@H](O)C[C@H]2C(=O)NC2CCCCC2)CC1
? | O=C(Cc1ccc(Cl)cc1)NC1CCN(c2cc(-c3ccccc3)[nH]n2)CC1
-15% | Cc1cn2nc(C(=O)NCc3ccccc3C(F)(F)F)cc2c(N2CCCC2)n1
2% | COCC1CN(S(=O)(=O)c2cccc(F)c2)CC12CCOCC2 (configuration not stated)
? | COC(=O)C1=C(C)N=C2SC=C(CC(=O)N3CCCCC3)N2C1c1ccc(Cl)cc1 (configuration not stated)
-14% | COc1cccc(NC(=O)c2cnc(-c3ccc(C)cc3)nc2-c2ccncc2)c1
-7% | CCCNC(=O)N1CCC2(CC1)CN(Cc1ccc(OC)cc1)C2=O
-1% | CCn1nccc1C(=O)N1CCC([C@H]2[C@@H](OC)C(=O)N2C(C)C)CC1
3% | COc1ccc(Cc2nc3nccc(-c4ccccc4)n3n2)cc1
3% | COC[C@@H]1CN(Cc2ccc(F)cc2Cl)C[C@H]1C(=O)NC1CC1
3% | CSc1ccc(-c2ccc3c(c2)C(=O)N2CCN(C(=O)CCC(=O)O)C[C@@H]2C(=O)N3)cc1
-4%[70.6 µM] | COc1ccccc1N1CCCc2ncc(C(=O)NCCOc3ccccc3)cc21
3%[70.6 µM] | COc1ccccc1-c1[nH]nc2ncc(C(=O)N3CCNC(=O)C3)nc12
21% | O=C(c1cccn1C1CC1)N1C[C@H](CO)C[C@H](CN2CCCC2)C1
-1% | COc1ccc(OC)c(CNC(=O)C2CCN(C(=O)N3CC4CC(C3)[C@H]3CCCC(=O)N3C4)CC2)c1 (some centres not stated)
-7% | CCc1ccccc1S(=O)(=O)N1CCCN(C)c2ccccc21
-7% | Cn1nc(C(=O)NC2CC(c3cc(N4CCCC4)ncn3)C2)ccc1=O (configuration not stated)
1% | O=C1[C@H]2CN(Cc3cccc(F)c3)C[C@H]2C(=O)N1Cc1ccc2c(c1)OCO2
-1%[70.6 µM] | CC(C)CCNC(=O)c1cnc2n1CCN(Cc1ccccc1F)CC2
4% | Cn1cnc(S(=O)(=O)N2CCC3(CC2)CC(CC(=O)N2CCOCC2)CCO3)c1 (configuration not stated)
-4% | Cc1ccc(NC(=O)Cn2c(-c3ccc(F)cc3)nc(C)c(CCO)c2=O)cc1Cl
-22% | Cc1cc(C(=O)N2CCC(c3nc(-c4ccccc4)no3)C2)n[nH]1 (configuration not stated)
24%[70.6 µM] | c1cc(-c2nc3ccncc3[nH]2)ccn1
-1% | CC(C)(C)n1nnnc1C1CC2(CCOCC2)C(=O)N1Cc1ccc(F)cc1 (configuration not stated)
-26% | O=C(CN1C(=O)NC(c2ccc(Cl)cc2)C2=C1COC2=O)NCCc1ccc(Cl)cc1 (configuration not stated)
2% | Cc1ccccc1NC(=O)N1CCC(CCNC(=O)c2ccoc2)CC1
14µM* | OCC1CCCN(c2ccc(-c3nc(-c4cccc(C(F)(F)F)c4)no3)cn2)C1 (configuration not stated)
2% | O=C(c1cc(F)cc(F)c1)N1CC(c2nc(CCc3ccccc3)no2)C1
-5% | COc1ccc(-c2onc(C)c2C(=O)NCc2ccccc2C)cc1
2% | CC(=O)N1CCN(C(=O)C[C@@H]2c3nc(NC(=O)C4CCC4)sc3C[C@@H]3[C@](C)(CO)[C@H](O)CC[C@]32C)CC1
-11% | CS(=O)(=O)N1CCC(CC(=O)NCc2ccccc2)C1 (configuration not stated)
-4% | CCS(=O)(=O)N1CCC(Oc2cccc(C(=O)NCc3ccccn3)c2)CC1
1% | CC(NC(=O)C1CCN(C(=O)c2ncn3c2COC(c2ccc(F)cc2)C3)CC1)c1ccccc1 (configuration not stated)
-12% | Cc1ccc2nc(C(=O)N[C@H]3COC[C@H]3Cc3cc(C)no3)cn2c1
-1% | CCOCc1nc(C2CCCN(C(=O)c3ccc(OC)nc3)C2)no1 (configuration not stated)

# 6 compounds picked at random from the list so far:
hNpr1 antagonist | mol
-11% | CS(=O)(=O)N1CCC(CC(=O)NCc2ccccc2)C1 (configuration not stated)
-1% | CCOCc1nc(C2CCCN(C(=O)c3ccc(OC)nc3)C2)no1 (configuration not stated)
-4% | CCS(=O)(=O)N1CCC(Oc2cccc(C(=O)NCc3ccccn3)c2)CC1
2% | CC(=O)N1CCN(C(=O)C[C@@H]2c3nc(NC(=O)C4CCC4)sc3C[C@@H]3[C@](C)(CO)[C@H](O)CC[C@]32C)CC1
1% | CC(NC(=O)C1CCN(C(=O)c2ncn3c2COC(c2ccc(F)cc2)C3)CC1)c1ccccc1 (configuration not stated)
-12% | Cc1ccc2nc(C(=O)N[C@H]3COC[C@H]3Cc3cc(C)no3)cn2c1

# Six compounds already listed, sorted by SMILES length, low to high.
hNpr1 antagonist | mol
-11% | CS(=O)(=O)N1CCC(CC(=O)NCc2ccccc2)C1 (configuration not stated)
-5% | COc1ccc(-c2onc(C)c2C(=O)NCc2ccccc2C)cc1
-4% | CCS(=O)(=O)N1CCC(Oc2cccc(C(=O)NCc3ccccn3)c2)CC1
-12% | Cc1ccc2nc(C(=O)N[C@H]3COC[C@H]3Cc3cc(C)no3)cn2c1
1% | CC(NC(=O)C1CCN(C(=O)c2ncn3c2COC(c2ccc(F)cc2)C3)CC1)c1ccccc1 (configuration not stated)
2% | CC(=O)N1CCN(C(=O)C[C@@H]2c3nc(NC(=O)C4CCC4)sc3C[C@@H]3[C@](C)(CO)[C@H](O)CC[C@]32C)CC1

# From PubChem BioAssay

# These rows are one share of the data. The share of hits here may be higher or lower than overall.
